From PubChem
Calb FLC = C. albicans growth inhibition with fluconazole, primary screen, CaCi-2 strain, Alamar Blue fluorescence. growth inhibition, % (test concentration not listed). hit rate 0.57% among 300,000. C. albicans CaCi-2 (fluconazole-resistant clinical isolate) + fluconazole, 48 h. AID 1979, 2009;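 active = most replicates above 75%; inconclusive = exactly half above 75%; inactive = most below 75%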;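 note: all wells also contain fluconazole at 8 µg/ml as a sub-toxic cotreatment; 0% = median of DMSO wells and 100% = median of geldanamycin control wells; wells of about 8 µL received 7.5 nL stock; the first replicate is given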
RanGTP-Imp inh = inhibitors of RanGTP-importin-beta interaction, primary screen, biochemical, FRET, CFP-Ran, YFP-importin-beta, homogeneous. Ran GTPase (GTP-bound) - importin-beta complex. cell-free CFP-Ran/YFP-importin-beta FRET ratio. inhibition, % (test concentration not listed). hit rate 1.1% among 300,000. AID 2216, 2009;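 active = most replicates above 15%; inconclusive = exactly half above 15%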;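 note: 0% = DMSO wells and 100% = Ran loaded with GDP instead of GTP; wells of about 40 µL received 100 nL stock; the first replicate is given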
rRNA inh HTS = reduced GFP signal of wild-type E. coli, primary screen, bacterial rRNA inhibitor project, GFP/RFP fluorescence, OD600, single point; E. coli WT GFP vs humanized-ribosome RFP mutants, 24 h; hits give low values; DMSO median 0, no signal -100; GFP signal change (wild-type ribosome), % (test concentration not listed); hit rate 1.6% among 350,000; AID 720706, 2013;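 active = significant combined selectivity score with lowered wild-type GFP, culture density cut under 30%, mutant RFP and density less affected; inactive = any of these conditions unmet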; note: one replicate is shown; some compounds called inactive have numbers as strong as hits
FGF22 binding = binders of human FGF22 protein, primary screen, FGF22 synaptogenesis inhibitor project, biophysical, thermal shift, single point. Fibroblast growth factor 22 (Homo sapiens), Q9HCT0. recombinant FGF22 thermal shift, SYPRO orange fluorescence; percent of sucrose octasulfate shift, DMSO zero. calls only at 9.99 µM. hit rate 1.5% among 340,000;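 active = melting point raised past a set limit in the mean and every replicate; inconclusive = no clear call; three in four hits are not shown here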
Target sequence (Q9HCT0 whole entry, looked up): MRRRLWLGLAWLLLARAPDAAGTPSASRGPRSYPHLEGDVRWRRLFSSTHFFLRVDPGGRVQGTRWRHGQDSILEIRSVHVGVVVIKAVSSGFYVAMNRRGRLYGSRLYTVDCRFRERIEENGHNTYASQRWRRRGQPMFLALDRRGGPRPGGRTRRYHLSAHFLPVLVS
MLL AF4-AF9 inh = inhibitors of AF4 peptide binding to AF9, primary screen, biochemical, AlphaScreen, biotin-AF4 peptide, FLAG-AF9, single point. Protein AF-9 (Homo sapiens), P42568. inhibition, % at 10 µM. hit rate 0.47% among 350,000;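 active = every replicate reaching a set inhibition limit, whatever the replicate mean, cut at about 25% in these data; inconclusive = mean inhibition reaches that limit but some replicates miss it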;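 note: 0% = plate neutral control median and 100% = total signal loss; the record names both 10 and 1 µM as test concentration; the first replicate is given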
Target sequence (P42568 whole entry, looked up): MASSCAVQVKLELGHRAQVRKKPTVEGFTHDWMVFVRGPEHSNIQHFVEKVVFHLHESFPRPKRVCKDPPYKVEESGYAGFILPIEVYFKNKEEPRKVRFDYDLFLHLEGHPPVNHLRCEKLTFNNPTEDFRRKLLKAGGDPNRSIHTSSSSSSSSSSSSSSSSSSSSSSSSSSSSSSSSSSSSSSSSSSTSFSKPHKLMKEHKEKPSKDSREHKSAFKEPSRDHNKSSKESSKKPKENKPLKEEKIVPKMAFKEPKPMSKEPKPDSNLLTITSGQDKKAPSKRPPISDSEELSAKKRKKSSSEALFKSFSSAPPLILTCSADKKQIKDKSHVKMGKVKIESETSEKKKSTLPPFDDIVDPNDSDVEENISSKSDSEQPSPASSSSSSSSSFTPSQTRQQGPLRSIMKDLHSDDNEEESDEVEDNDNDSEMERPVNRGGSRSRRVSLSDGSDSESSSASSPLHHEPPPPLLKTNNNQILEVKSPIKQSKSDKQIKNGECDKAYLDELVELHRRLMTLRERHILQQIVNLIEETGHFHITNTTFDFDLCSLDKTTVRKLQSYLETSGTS
Beta apoptosis = inhibitors of cytokine-induced beta cell apoptosis, primary screen, luminescence | INS-1E cytokine-induced death, ATP luminescence, 48 h; percent of positive-control rescue, neutral wells zero | protection from apoptosis, % (no concentration beside the values) | hit rate 0.8% among 300,000 | AID 435005, 2010;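 active = all replicates at 75% or more, or half of them and the mean; inconclusive = half reach 75% but not the mean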;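 note: 0% = cytokine-treated negative control wells and 100% = positive control rescue; higher means more ATP so stronger rescue from cytokine killing; wells of about 40 µL received 100 nL stock; the first replicate is given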
T cruzi repl = inhibitors of intracellular T. cruzi growth, primary screen, luminescence, NIH3T3 host cells; T. cruzi beta-gal in NIH3T3, 90 h; inhibition, % (no concentration beside the values); hit rate 1.4% among 300,000; AID 1885, 2009;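 active = mean inhibition across valid replicates above about 55%, limit read from the data; inconclusive = mean below that limit but half or more replicates reach it; inactive = mean below it, under half of replicates reach it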;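 note: signal also drops with host cell toxicity which is not excluded here; 0% = plate median of DMSO wells and 100% = zero luminescence signal; higher percent means less beta-gal luminescence so fewer parasites; stock transfer was 50 nL into about 50 µL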
ALR inh = inhibitors of human ALR sulfhydryl oxidase, primary screen, biochemical, H2O2 detection, HRP-luminol luminescence, single point. FAD-linked sulfhydryl oxidase ALR (Homo sapiens), P55789. purified ALR, DTT oxidation. inhibition, % (test concentration not listed). hit rate 3.8% among 290,000. AID 485317, 2010;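 active = mean and each replicate at 75% or more; inconclusive = only one of the two met; inactive = neither met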;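 note: stock transfer was 7.5 nL into about 7.5 µL; 0% = neutral wells and 100% = wells with inactivated enzyme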
Target sequence (P55789 whole entry, looked up): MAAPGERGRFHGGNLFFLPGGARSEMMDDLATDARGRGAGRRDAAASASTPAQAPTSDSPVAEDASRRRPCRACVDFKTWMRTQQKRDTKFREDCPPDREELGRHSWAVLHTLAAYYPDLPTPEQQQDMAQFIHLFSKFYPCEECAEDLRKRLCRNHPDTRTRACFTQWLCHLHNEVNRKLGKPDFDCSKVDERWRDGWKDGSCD
rRNA inh HTS OD600 = recorded beside rRNA inh HTS, whose call it bears; OD600 change, %; measured here: OD600 growth;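 optical density of the mix in the first replicate; 0 = DMSO median and -100 = no signal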
rRNA inh HTS RFP = second read-out of rRNA inh HTS, no call of its own (marks repeat the call); RFP signal change, %; measured here: RFP humanized mutant strains;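 first replicate; 0 = DMSO median and -100 = no signal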
Numbers without * were called inactive; i = inactive; u = inconclusive; x = not tested or not shown.

structure	Calb FLC	RanGTP-Imp inh	rRNA inh HTS	rRNA inh HTS OD600	rRNA inh HTS RFP	FGF22 binding	MLL AF4-AF9 inh	Beta apoptosis	T cruzi repl	ALR inh
O=C(CSc1nc(=O)n(CCN2CCOCC2)c2c1CCC2)Nc1ccc(OC(F)(F)F)cc1	11	3.3	5	9	-1.7	i	-0.3	2	28	97*
O=C(Nc1ccccc1C(F)(F)F)c1c(F)cccc1Cl	1	-12	4	7	0.7	i	1.8	-10	1	-6
N#CC(C#N)=Cc1cccn1-c1ccc(S(N)(=O)=O)cc1	-2	1.1	8	8	1.7	i	0.9	-1	-15	-2
COc1ccc(Cl)cc1NC(=O)CN(C)C(=O)c1cc2ccccc2cc1O	14	-9.5	-7	-27	5.9	x	3.1	-4	-19	x
CN(C(=O)CN1C(=O)c2ccccc2S1(=O)=O)C1CCCCC1	x	x	7	3	2.0	i	2.9	-2	x	-2
CN1CCN(C(=O)C2=C[C@H](c3ccc4c(c3)OCO4)C[C@H](OCc3ccc(CO)cc3)O2)CC1	-18	-3.4	1	-3	-11	i	0.1	6	-9	-7
CC(C)NS(=O)(=O)c1ccc(NC(=O)C2CC3C=CC2C3)cc1 (stereo not drawn)	-2	2.2	x	x	x	x	x	-5	16	4
O=C(Nc1ccc2c(c1)C(=O)OC2)c1ccc(C(F)(F)F)cc1	3	-15	15	18	-0.5	i	-0.2	-5	-11	-3
CC(C)(C)C(=O)OCc1nc(-c2ccc(Cl)cc2)cs1	-1	0.3	-15	-9	0.1	i	-11	-1	-10	-16
CCN(CCCNC(=O)CC(C(=O)N1CCc2ccccc21)n1ccnc1)c1cccc(C)c1 (stereo not drawn)	20	-0.9	x	x	x	x	x	-7	35	99*
COc1ccc2c(c1)CCCC21NC(=O)N(CC(=O)NCc2cccs2)C1=O (stereo not drawn)	x	x	-4	7	1.2	x	-2.7	-5	x	5
C=C(C)Cn1c(N)cc(=O)nc1SCC(=O)Nc1cccc(C(F)(F)F)c1	-4	7.9	6	16	5.2	i	-1.2	-6	-2	97*
COc1ccc(CSCCc2n[nH]c(=S)n2-c2ccccc2)cc1C	-6	-24	-36	-49	-3.1	i	-5.8	2	3	32
COc1ccc(-c2cc(C(=O)N3CCN(C(=O)c4ccco4)CC3)[nH]n2)cc1	3	2.2	-12	-9	-3.7	i	-7.2	2	0	-6
O=C(CCn1c(=O)oc2ccccc21)NC1=NCCS1	-4	4.1	x	x	x	x	x	-11	-10	-2
COc1ccc(N2CCN(C(=O)CN(c3ccc(Br)cc3)S(C)(=O)=O)CC2)cc1	-17	-2.0	x	x	x	x	x	-9	-1	u
O=C1N/C(=N/Nc2ccccc2)S/C1=C\c1ccccc1	-14	-0.8	x	x	x	x	x	-3	-6	x
CC(C)C(=O)NC(=S)Nc1ccccc1C(=O)NC1CCCCC1	30	-3.7	10	-2	-1.8	i	-0.3	-4	-14	13
Cc1ccc(Cl)cc1NC(=O)CN1CCN(S(=O)(=O)N2CCOCC2)CC1	3	4.8	3	2	-1.4	i	1.6	-2	5	-9
COc1ccc(NC(C)c2cc(Cl)ccc2O)cc1 (stereo not drawn)	-2	-2.3	x	x	x	x	x	-2	-5	x
CCCCn1c(SCC(=O)N(CC)C2CCS(=O)(=O)C2)nc2cc(S(N)(=O)=O)ccc21 (stereo not drawn)	9	2.4	-3	-15	-2.1	i	1.9	3	-4	-6
Cc1ccc(C2NC(=O)c3ccccc3N2)s1 (stereo not drawn)	4	1.7	x	x	x	x	x	5	-10	3
CCCN(CCC)CCOc1cc(C)ccc1C(C)C	-25	-1.7	8	3	7.5	i	-21	0	3	-2
Cn1c(=O)n(CC(=O)Nc2ccc(F)cc2)c2ccccc21	-24	0.4	x	x	x	x	x	-1	-4	-7
Cc1nc2ccccc2nc(=O)c1NNc1ccccc1	-25	2.6	-1	1	-5.2	i	3.1	x	4	x
O=C(c1ccccc1)c1nc2ccccc2[nH]c1=O	0	u	x	x	x	x	x	-3	-13	5
O=C(COC(=O)c1cc[n+]([O-])cc1)Nc1ccc(Cl)cc1Cl	x	x	10	4	2.5	i	-4.4	-2	x	-8
Cc1cc(Nc2cc(Cl)nc(Sc3ccc(NC(=O)C4CC4)cc3)n2)n[nH]1	38	0.8	-54	-79	-28	i	3.0	-7	45	0
N/C(=N\OS(=O)(=O)c1ccc2ccccc2c1)c1cccnc1	-9	-6.5	x	x	x	i	-7.2	1	-3	-11
Oc1csc(Cc2nc(-c3ccccc3F)cs2)n1	-4	21*	0	-7	1.6	i	-1.0	4	24	-22
Cc1cccc(NC(=O)/C(C#N)=C/c2cccc([N+](=O)[O-])c2)n1	-7	1.1	-12	-11	-0.7	i	3.5	-10	-3	12
c1cncc(-c2nc(-c3cccs3)cs2)c1	-3	5.4	x	x	x	x	x	-8	-5	-1
O=C1c2cc3ccccc3c(-c3ccccc3)c2C(=O)N1c1ccccn1	-4	-2.9	x	x	x	x	x	-1	-5	21
O=C(NCCCn1ccnc1)C1CCCN(S(=O)(=O)c2cc(Cl)ccc2Cl)C1 (stereo not drawn)	-7	-0.9	0	-7	0.0	i	0.3	x	16	-7
Cc1cccc(N(CC(=O)NC2CCCC2)C(=O)CCC(=O)Nc2ccccn2)c1	-10	2.1	5	17	-3.0	i	-4.1	-2	-3	-1
O=c1c2[nH]c3ccc(Br)cc3c2ncn1Cc1ccncc1	-2	1.1	x	x	x	x	x	-4	-9	-2
CCOC(=O)c1cc(CC)sc1NC(=O)c1cccc(N2C(=O)CCC2=O)c1	36	1.6	10	9	4.0	i	u	-5	-2	4
COc1cccc(-c2c(C(=O)N/N=C/c3cccs3)nnn2-c2nonc2N)c1	-5	3.3	x	x	x	x	x	-3	-6	-11
CCOc1ccc(C2C(C(=O)c3cccs3)=C(O)C(=O)N2Cc2cccnc2)cc1 (stereo not drawn)	14	-3.1	6	-3	3.3	i	-2.1	1	-2	8
O=C(CCl)Nc1ccc(Sc2ccc(NC(=O)CCl)cc2)cc1	-15	-2.4	-11	5	7.9	i	-5.8	x	48	x
CCn1c(=S)sc2c(=O)n(CC(=O)NCCCc3ccccc3)c(C)nc21	-5	2.6	17	12	-1.4	i	-1.2	-7	-6	-2
OC1CCN(Cc2ccc(OCc3ccccc3)cc2)CC1	0	-1.3	14	10	-0.5	i	-7.1	2	61*	x
COc1ccc(/C=N/Nc2nc(-c3cccnc3)nc3ccccc23)c(OC)c1	3	2.0	2	5	1.8	x	-3.7	18	2	-9
CCCCn1c(N)c(N(CCOC)C(=O)c2sc3ccccc3c2Cl)c(=O)[nH]c1=O	x	7.3	2	-4	-1.2	i	-21	-1	-8	-3
C=CCOc1ccc(Br)cc1CNCC	-5	0.7	1	6	-2.5	i	-3.1	-5	-18	2
CCOc1ccc(/C(O)=C/C(=O)C(=O)Nc2ccc(S(=O)(=O)NC(C)=O)cc2)cc1	-7	8.8	x	x	x	i	-3.3	-5	-16	98*
COc1cc(NC(=O)NS(=O)(=O)c2ccc(C)cc2)cc(OC)c1	-11	3.0	x	x	x	x	x	1	15	-2
C[C@@H]1CN(Cc2cn(C)nc2-c2cccc(Cl)c2)C[C@H](C)O1	-5	-1.1	4	4	-2.1	i	0.7	-5	-15	-7
CC(NC(=O)C1CCN(S(=O)(=O)N2CCC3(CC2)OCCO3)CC1)c1ccccc1 (stereo not drawn)	2	-0.2	3	6	-7.2	i	-1.7	-4	-4	4
O=C(CCNC(=O)c1ccc(Cl)cc1)Nc1ccc(S(=O)(=O)N2CCOCC2)cc1	x	x	19	19	-0.4	i	0.0	-4	x	x
O=C(O)C(Cc1ccccc1)N1C(=O)/C(=C/C=C/c2ccco2)SC1=S (stereo not drawn)	18	-3.3	14	13	19	i	0.0	x	26	x
CCCCn1c(N)c(N(CCOC)C(=O)c2ccco2)c(=O)[nH]c1=O	2	-1.7	1	8	-1.1	i	-8.9	0	-2	-20
O=C(Nc1nnc(CC(=O)N2CCOCC2)s1)c1cccs1	-1	-4.3	x	x	x	x	x	1	-25	15
COC(=O)c1ccc(OC)c(OC2CCCC2)c1	-6	1.7	8	12	-3.1	i	-1.2	x	6	3
CC(C)C(=O)c1cn(CC(=O)NCc2ccc3c(c2)OCO3)c2ccccc12	-7	4.8	x	x	x	x	x	-2	3	-4
CC(Cc1ccc(O)c(O)c1)C(C)Cc1ccc(O)c(O)c1 (stereo not drawn)	x	-0.7	x	x	x	x	x	4	-12	99*
Cc1ccc(N(CC(=O)Nc2cccc(C)c2)S(=O)(=O)c2cccc3nonc23)cc1	-8	3.3	x	x	x	x	x	-2	24	-6
N#C/C(=C(/O)CSc1ccccn1)c1nc2ccccc2s1	7	21*	12	-6	7.0	i	-2.0	3	-17	82*
COc1cc(C)ccc1OCCCOc1ccccc1Cl	6	3.7	x	x	x	x	x	1	5	x
Nc1n[nH]c(CCCO)n1	10	-1.0	x	x	x	x	x	-4	-41	-10

(further entries)
structure	Calb FLC	RanGTP-Imp inh	rRNA inh HTS	rRNA inh HTS OD600	rRNA inh HTS RFP	FGF22 binding	MLL AF4-AF9 inh	Beta apoptosis	T cruzi repl	ALR inh
CC(C)(C)OC(=O)NCCCCCc1nnc(SCc2ccc(F)cc2)o1	0	4.1	-29	-51	4.0	i	-0.1	1	22	1
COC(=O)CN1C(=S)N(Cc2ccccc2)C(=O)C1CC(=O)Nc1ccc(OC)cc1 (stereo not drawn)	9	2.4	x	x	x	x	x	-5	-4	-9
CCC(C)(C(=O)NC1CCCC1)N(C(=O)c1cnccn1)c1ccccc1 (stereo not drawn)	-7	8.9	9	10	0.2	i	-11	-3	-3	x
COc1ccc(C)cc1NC(=O)CCN1CCN(C/C=C/c2ccccc2)CC1	7	-2.2	0	-9	2.9	i	5.3	0	45	-3
Cc1cc(Cl)nc(Cl)c1C(=O)NCCc1ccccc1	x	x	2	5	-1.4	i	-0.5	-1	x	x
CN(C)CCNC(=O)Cn1nc(C(F)F)cc1C1CC1	-50	2.5	x	x	x	x	x	-6	-7	1
CCC(CO)Oc1cc(NCc2ccccc2F)c2ncn(C(C)C)c2c1 (stereo not drawn)	x	x	-10	-9	7.6	i	2.1	-11	x	u
CCc1nc(SCC(=O)N2c3ccccc3CC2C)c2c(C)c(C)sc2n1 (stereo not drawn)	-1	1.0	9	12	4.8	i	6.9	20	28	15
NC(N)=N/N=C/c1ccc(OCc2ccccc2)c(OCc2ccccc2)c1	28	5.4	-74	-79	-33	i	20	9	0	-5
COc1ccc(OC)c(S(=O)(=O)Nc2ccc3oc(C)c(C(C)=O)c3c2)c1	1	-3.0	2	-5	4.2	i	1.2	7	18	-31
COc1ccc(C(=O)NNc2ccccc2)cc1	-13	0.0	x	x	x	x	x	2	37	73

This is a subset, so the mix of outcomes need not match the whole.
